# Source: PubChem BioAssay
# TsaE inh: inhibitors of E. coli YjeE (TsaE); P0AF67; purified YjeE, fluorescence polarisation of a bound ADP probe; Potency, µM; actives 0.05% (n = 71,000); active = well fitted falling curve; inconclusive = weaker or top-dose-only fall, or a rising curve; inactive = flat or poorly fitted curve;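 further: top concentration of the series not given in the record; excess ADP was the control for the full effect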
#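 Purified YjeE (10 uM) with BODIPY Texas Red-labeled ADP probe (2 uM); compounds pin-transferred, 15 min at room temperature. Binding inhibition read as decreased fluorescence polarization; ADP titration as control.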
# PK Bst: pyruvate kinase (B. stearothermophilus) modulation | partly purified Bacillus stearothermophilus pyruvate kinase, luminescence ATP production; ribose 5-phosphate activator present at AC10 | Potency, µM | actives 1.2% (n = 51,000); in the data active means potency below about 11 µM; inconclusive means mostly about 12 µM to 25 µM; inactive means weaker than that;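 the screen sought inhibitors and activators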;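 further: potency means the concentration at half of the fitted maximal effect; scaled between full activation by ribose 5 phosphate and full inhibition by luteolin; about four in five hits inhibit and the cells do not say which; series up to 57 µM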
# * marks the source's active call; other numbers are inactive results; i = inactive; . = not tested or not shown. Only part of the results is shown; rates above refer to the full screens.
item | compound | TsaE inh | PK Bst
1 | CCN1CCc2c(C#N)c(N3CCOCC3)nc(NCc3ccccc3)c2C1 | . | >26
2 | COc1ccc(-c2noc(CSc3nc(N)c(-c4ccccc4)c(=O)[nH]3)n2)cc1 | i | >57
3 | Nc1ccc(-c2nc3c(Cl)c(N)ccc3[nH]2)cc1 | i | i
4 | COc1cccc(NC(=O)Cc2cn(C)c3ccccc23)c1 | i | >57
5 | O=C(NC1CCCC1)C1CCN(S(=O)(=O)N2CCCCC2)CC1 | i | >57
6 | O=C(NC1CCCCCC1)c1c(F)c(F)c(F)c(F)c1F | i | .
7 | Cc1ccccc1NC1=NC(C)(C)N=C(N)N1 | i | >57
8 | CC1(C)CC(=O)C(C=Nc2ccc(O)cc2)=C(O)C1 | i | >57
9 | CCN1CCN(Cc2ccc(NC(=O)CC3Oc4ccc(C)cc4NC3=O)cc2)CC1 (stereo not drawn) | i | .
10 | COC(=O)CCCC(=O)Nc1c(F)c(F)c(F)c(F)c1F | i | .
11 | O=C1C2CC=CCC2C(=O)N1CC(=O)N(Cc1ccccc1)C1CCS(=O)(=O)C1 (stereo not drawn) | i | >57
12 | CC(C)C(=O)Nc1ccc(NC(=O)c2ccccc2Cl)nc1 | i | >11
13 | CCOC(=O)Cc1nnc(NC(=O)C(CC)Sc2nnc3c4ccccc4n(C)c3n2)s1 (stereo not drawn) | i | >57
14 | O=C(O)Cn1cc(C(=O)c2cccs2)c2ccccc21 | i | >57
15 | NC(=O)C1CCN(C(=S)c2cccs2)CC1 | i | >57
16 | CCOc1ccc(S(=O)(=O)NCCC(=O)NC2=NCCS2)cc1 | i | >57
17 | CN1CCN(c2ncc3nc(-c4cn(C)c5ccccc45)c(=O)n(C[C@H]4CCCO4)c3n2)CC1 | i | .
18 | O=C(Cn1cnc2c(cnn2-c2ccccc2)c1=O)N1CCCc2ccccc21 | i | >57
19 | O=CN(CCN(C=O)CN1CCCCC1)CN1CCCCC1 | i | .
20 | COc1ccc(NCc2n[nH]nc2-c2ccccc2)cc1Cl | i | >57
21 | CC(=O)NCCNc1ncncc1-c1ccccc1CN(C)C | i | .
22 | COc1cc(C2c3c(oc4ccccc4c3=O)C(=O)N2Cc2ccncc2)ccc1O (stereo not drawn) | i | >57
23 | Cc1cc(C(=O)COc2cccc(-n3cnnn3)c2)c(C)n1-c1ccccc1 | i | .
24 | CCCOC(=O)CSc1nnc(-c2ccc(Cl)cc2Cl)o1 | i | >57
25 | CC1=C(C(=O)NC(C)C)C2(CCC(C)CC2)OC1=O (stereo not drawn) | i | .
26 | Cc1cc(C(=O)N2CCN(c3ncccn3)CC2)c2cc(F)ccc2n1 | i | >57
27 | C[C@]1(C(=O)NCCCNc2ncc(C(F)(F)F)cc2Cl)C=C[C@@H](Cc2ccccc2)N1C(=O)c1ccccc1 | i | .
28 | CC(=O)Nc1nc2ccccc2n1CCN(C)C | i | .
29 | CCOc1ccc(N/C(SC)=C(/C#N)C(N)=O)cc1 | i | i
30 | COc1cccc(-n2c(Cc3cc(=O)[nH]c(=O)[nH]3)nnc2SC(C)C)c1 | i | .
31 | Nc1nnc(CSc2ccc(Cl)cc2)s1 | . | >26
32 | O=C(O)CCC(=O)Nc1ccc(Br)cn1 | i | >57
33 | COc1cc(OC)c(C2C(C(=O)N3CCOCC3)=C(C)NC3=C2C(=O)CC(C)(C)C3)cc1OC (stereo not drawn) | i | >57
34 | CC1CCN(CCCNC(=O)Cc2c(C(=O)O)n(C)c3ccccc23)CC1 | i | >57
35 | COC(=O)c1ccc(COc2ccc3c(C)c(C)c(=O)oc3c2C)o1 | i | .
36 | O=C(CCc1ccc(S(=O)(=O)N2CCOCC2)cc1)Oc1ccccc1 | i | >57
37 | CCOC(=O)C1CCN(c2c(NC3CCCc4ccccc43)c(=O)c2=O)CC1 (stereo not drawn) | i | .
38 | CCCC1(C(=O)OC)C=C2C(=C(C(C)C)C(=O)C2C)CN1 (stereo not drawn) | i | .
39 | COC(=O)c1ccc(NC(=O)c2ccccc2NS(C)(=O)=O)cc1 | i | .
40 | COc1ccc(-n2nc(C(=O)N3CCN(c4ccc(F)cc4)CC3)c3ccccc3c2=O)c(OC)c1 | i | >57
41 | COCCn1c(CCC(=O)O)nc2c1c(=O)[nH]c(=O)n2CC(C)C | i | >57
42 | CCSc1sccc1C1C(C#N)=C(N)N(c2cccnc2)C2=C1C(=O)CCC2 (stereo not drawn) | i | >57
43 | Cc1ccc2c(CC(=O)OCc3nc(N)nc(Nc4ccccc4C)n3)coc2c1 | i | >57
44 | COc1ccc2c(c1)c(CC(=O)O)c(C)n2C(=O)c1ccccc1 | i | .
45 | C[C@H](NC(=O)Nc1ccc2c(c1)OCCO2)C(=O)O | i | >57
46 | CC(C1CC1)N(C(=O)NC1CCS(=O)(=O)C1)c1ccccc1 (stereo not drawn) | i | >57
47 | CCOC(=O)CCc1c(C)c(C#N)c2nc3ccccc3n2c1-n1ccnc1C | . | >26
48 | COc1nc(N)nc(CC(=O)C2CC2)n1 | i | >57
49 | CN(CC(=O)NC1CCCc2ccccc21)S(=O)(=O)c1ccc2c(c1)c(=O)n(C)c(=O)n2C (stereo not drawn) | i | .
50 | Nn1c(SCC(=O)N2CCOCC2)nnc1-c1ccc(Cl)cc1Cl | i | >57
51 | CCCn1c(NC(=O)c2ccccc2)nc2ccccc21 | i | >57
52 | C=CCN1C(=O)CN=C1NCc1ccccc1 | i | >57
53 | COc1ccccc1N1CCN(C(=O)c2sc3nc(-c4ccc(F)cc4)cn3c2C)CC1 | i | .
54 | O=C(NCc1ccco1)c1cc2sccc2n1Cc1ccc(F)cc1 | i | >57
55 | O=C(CSc1nnc2ccccn12)c1ccc2c(c1)OCCO2 | i | .
56 | Cc1ccc(NC(=O)N2CCC(c3nc4c(nnn4Cc4cccc(Cl)c4)c(=O)[nH]3)CC2)cc1 | i | >57
57 | COC(=O)CC1=C(C(=O)OC)C(c2cccc(OCC(N)=O)c2)C(C#N)=C(N)O1 (stereo not drawn) | . | >11
58 | Cn1cc(SCC(=O)Nc2nc3ccccc3s2)c2ccccc21 | i | >57
59 | COC(=O)N1CCC2(CCN(C(=O)Nc3cccc(C#N)c3)CC2)CC1 | i | .
60 | COC(=O)c1cccc(NC(=O)c2ccc(S(=O)(=O)N3CCN(C)CC3)cc2)c1 | i | >57

# (listing goes on)
item | compound | TsaE inh | PK Bst
61 | Cc1cccc(CNc2ncnc3ccc(-c4cccc(NS(C)(=O)=O)c4)cc23)c1 | i | .
62 | COc1ccc(CCNC(=O)c2ccncc2)cc1OC | i | .
63 | O=C(Nc1ccc(S(=O)(=O)C(F)F)cc1)c1cccc(S(=O)(=O)N2CCOCC2)c1 | i | >57
64 | CC(=O)c1ccc(NC(=O)CSCCO)cc1 | i | >57
65 | COC(=O)C1CCN(C(=O)c2ccc(NC(C)=O)cc2)CC1 | i | .
66 | CCN1CCN(c2nc3ccccc3nc2C(C#N)C(=O)OCc2ccccc2)CC1 (stereo not drawn) | i | >57
67 | COc1c(Br)cc(Br)cc1/C=N/n1c(C)nnc1C | i | >57
68 | C=CCN(C(=O)CCC(=O)Nc1cc(C)on1)C(C(=O)NC1CCCC1)c1cccnc1 (stereo not drawn) | i | >57
69 | CC(=O)NCC1=C(NC(C)=O)C2CC1C(C)(C)C2C (stereo not drawn) | i | >57
70 | COc1ccc(C2CC(c3cc(OC)ccc3OC)n3nnnc3N2)cc1 (stereo not drawn) | i | >57
71 | COc1ccc(OC)c(S(=O)(=O)N2CCC(C(=O)NCCC3=CCCCC3)CC2)c1 | i | >57
72 | CCOC(=O)c1ccc(N2C(=O)CC(N(C)CCc3ccc(OC)c(OC)c3)C2=O)cc1 (stereo not drawn) | i | .
73 | CN(c1ccc(OCC(=O)N2CCCCC2)cc1)S(=O)(=O)c1cccs1 | i | >57
74 | O=C(NCc1ccco1)c1cc2ccc(O)cc2oc1=O | i | .
75 | Cc1ccc(NC(=O)NCC(c2cccnc2)N2CCOCC2)cc1 (stereo not drawn) | i | >57
76 | N#Cc1ccc(C23CC4CC(CC(C4)C2)C3)[nH]c1=O | i | >57
77 | CC(=O)c1cccc(NC(=O)C2CCCN(S(C)(=O)=O)C2)c1 (stereo not drawn) | i | >57
78 | Cc1nc(N2CCN(S(=O)(=O)c3ccc(F)cc3)CC2)c2c(C)c(C)sc2n1 | i | >57
79 | CCCOCC(O)COc1ccccc1C(=O)N1CCOCC1 (stereo not drawn) | i | >57
80 | COc1ccc(-c2ccc(SCC(=O)N3CCOCC3)nn2)cc1OC | i | .
81 | CC(=O)C(C)=O | i | .
82 | Clc1cc(Cl)c2nc(N3CCOCC3)sc2c1 | i | >57
83 | COC(=O)c1cc(COC(=O)c2ccc(OC)c(S(=O)(=O)N3CCCC3)c2)oc1C | i | >57
84 | CC(C)NC(=O)N1CC[C@@]2(CCCN(C(=O)c3cnccn3)C2)C1 | i | .
85 | Cc1cccc(-c2cc3nc(C)cc(NCCCN(C)C)n3n2)c1 | i | .
86 | Fc1ccc(Nc2nc(-c3cccnc3)nc3ccccc23)cc1 | i | .
87 | CCCCC(=O)Nc1nnc(C)s1 | i | >57
88 | COc1ccc(CCNS(=O)(=O)c2cn(C)c(=O)n(C)c2=O)cc1OC | i | .
89 | COc1cc2c(cc1OC)-c1cc(NC3CCCC3)nc(=O)n1CC2 | i | >57
90 | Cc1cccc(CNc2ncncc2-c2ccc3c(c2)OCO3)c1 | i | .

# Gathered by group, those above containing a furan ring, fused or not.
item | compound | TsaE inh | PK Bst
35 | COC(=O)c1ccc(COc2ccc3c(C)c(C)c(=O)oc3c2C)o1 | i | .
43 | Cc1ccc2c(CC(=O)OCc3nc(N)nc(Nc4ccccc4C)n3)coc2c1 | i | >57
54 | O=C(NCc1ccco1)c1cc2sccc2n1Cc1ccc(F)cc1 | i | >57
74 | O=C(NCc1ccco1)c1cc2ccc(O)cc2oc1=O | i | .
83 | COC(=O)c1cc(COC(=O)c2ccc(OC)c(S(=O)(=O)N3CCCC3)c2)oc1C | i | >57

# The list continues:
item | compound | TsaE inh | PK Bst
91 | CC(=O)NCC(=O)N(Cc1ccco1)C1(C(=O)NC2CCCCC2)CCCCC1 | i | >57
92 | COCc1n[nH]c(=S)n1-c1cccc2ccccc12 | . | >26
93 | COCc1cc(C)nc(SCC(=O)Nc2ccc3c(c2)OCO3)c1C#N | i | >57
94 | Cc1ccccc1Cn1nnc(C(=O)Nc2cccc(C)c2C)c1N | i | .
95 | COc1ccc(S(=O)(=O)Nc2ccc(S(=O)(=O)Nc3nc(C)cc(C)n3)cc2)cc1OC | i | >57
96 | O=C(CSc1nc2c(c(=O)n1-c1ccc(Br)cc1)SCC2)NCc1ccco1 | i | >57
97 | C/C=C/c1ccc(OCCCNCC(C)O)c(OC)c1 (stereo not drawn) | i | >57
98 | CCOC(=O)c1cnc(-n2nc(C)cc2C)nc1NC1CCCCC1 | i | .
99 | CNc1ccnc(-c2ccccc2OC)n1 | i | .
100 | Cc1cc(NC(=O)Cn2nc(C(F)(F)F)c3c2CCC3)no1 | i | >57
101 | CN(C1CCCCC1)S(=O)(=O)c1ccc(NC(=O)C2CCCCC2C(=O)O)cc1 (stereo not drawn) | i | >57
102 | CCOC(=O)c1sc2nc(CSCC(=O)OCc3ccc(C(=O)OC)o3)[nH]c(=O)c2c1C | i | >57
103 | COc1ccccc1-c1ccc(Nc2cccc(C(C)=O)c2)nn1 | i | >57
104 | Cc1onc(-c2ccccc2Cl)c1C(=O)Nc1ccc(-n2nncc2-c2ccco2)cc1 | i | >57
105 | CCC(OC(=O)c1cccs1)C(=O)NC1CCCCC1 (stereo not drawn) | i | >57
106 | CN1C(=O)CC(N2CCN(c3ncccn3)CC2)C1=O (stereo not drawn) | i | .
107 | COc1cc(OC)cc(-c2nc(N)n[nH]2)c1 | i | >57
108 | CS(=O)(=O)N(Cc1ccccc1)c1ccccn1 | i | .
109 | O=C(CN1C(=O)c2ccccc2S1(=O)=O)N1CCc2ccccc21 | i | >57
110 | Cc1cccc2cc(CN(CCCO)C(=O)Nc3cccc(Cl)c3)c(=O)[nH]c12 | i | .
111 | O=C(c1ccccc1-c1nc(-c2ccc(F)cc2)no1)N1CCCC1 | i | .
112 | CCOC(=O)C1=C(C)NC2=C(C(=O)C(C(=O)OC)C(C)C2)C1c1ccc(OC)c(O)c1 (stereo not drawn) | i | >57
113 | C=CCc1cccc(CNc2nc3ccccc3n2CCC)c1O | i | >57
114 | O=C1COc2ccc3ccccc3c2CN1 | i | >57
115 | COc1ccc(CC(=O)Nc2nc3n(n2)C(c2ccccc2)CC(=O)N3)cc1OC (stereo not drawn) | i | >57
116 | CCOc1ccc(-c2nnc(SCC(=O)N(CC)CC)n2N)cc1 | i | >57
117 | Cc1noc(C)c1S(=O)(=O)N1CCC(C(=O)N2CCN(c3ccc(Cl)cc3)CC2)CC1 | i | >57
118 | Cc1cc(OCC(=O)Nc2ccncc2)ccc1Br | i | .
119 | Fc1ccc(N2CCN(C(c3cccs3)c3nnnn3C3CCCC3)CC2)cc1 (stereo not drawn) | i | >57
120 | Cc1nc(SCC(=O)Nc2ccc(C)c(F)c2)c2oc3ccccc3c2n1 | i | >57
121 | O=C(O)CCC(NC(=O)OCc1ccccc1)C(=O)O (stereo not drawn) | i | >57
122 | CCCS(=O)(=O)N1CCCC(C(=O)NCCCN(C)Cc2ccccc2)C1 (stereo not drawn) | i | >57
123 | O=C(CCc1nc2ccccc2[nH]c1=O)OCC(=O)N1CCc2ccccc21 | i | >57
124 | COc1ccc(-c2cc(C(F)(F)F)nc(SCCC(=O)N3CCOCC3)n2)cc1 | i | >57
125 | COc1ccc(OCc2ccc(-c3nc4ccccc4c(=O)n3N)o2)cc1 | i | .
126 | COc1ccccc1CNc1ncncc1-c1cccc(C#N)c1 | i | .
127 | Cc1ccnc(N2CCC(C(=O)Nc3nnc(C)s3)CC2)n1 | i | >57
